Screening results: PubChem, National Center for Advancing Translational Sciences (NCATS)
D2 PAM = human D2 receptor positive allosteric modulation. AID 624464. P14416. hit rate 0.23% among 360,000. DiscoveRx D2 beta-arrestin cells, luminescence, 90 min; 100% = 57 uM dopamine signal. potentiation, % (concentration not given with the values); active = potentiation of 50% or more; inconclusive = 30% to 50%; inactive = 30% or less;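 note: compound concentration not given in the record; tested on top of an EC20 dose of dopamine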
Target sequence (P14416 whole entry, looked up): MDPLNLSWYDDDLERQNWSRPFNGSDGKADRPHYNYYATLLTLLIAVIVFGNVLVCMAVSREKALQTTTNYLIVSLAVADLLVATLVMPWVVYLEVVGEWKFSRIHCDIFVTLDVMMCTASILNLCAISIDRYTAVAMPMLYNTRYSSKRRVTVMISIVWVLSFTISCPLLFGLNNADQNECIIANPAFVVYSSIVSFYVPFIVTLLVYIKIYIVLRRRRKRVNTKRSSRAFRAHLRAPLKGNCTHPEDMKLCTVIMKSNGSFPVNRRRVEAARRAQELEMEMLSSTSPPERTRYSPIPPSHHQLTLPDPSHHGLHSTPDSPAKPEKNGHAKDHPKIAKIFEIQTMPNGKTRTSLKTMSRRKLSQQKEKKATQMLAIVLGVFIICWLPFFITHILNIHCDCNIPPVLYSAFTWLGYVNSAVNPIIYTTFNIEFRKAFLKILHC
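PathHunter D2 cells, attached overnight at 37 deg C, received compound in DMSO plus dopamine at EC20 (50 nM final) for 90 min at 37 deg C. Beta-arrestin recruitment was read as luminescence after 1 h with detection reagent at ambient temperature.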
PINK1 modulator = modulators of PINK1 expression. PINK1 immunofluorescence, high-content cytometry, 24 h. hit rate 0.2% among 410,000. Potency, µM (titrated, usually from 76.6 µM), for the others: at the highest dose activation (PINK1 increase), most hits filed as activators. AID 624263; active = well fitted activation curve with a large enough effect; inconclusive = small, poorly fitted or top-dose-only effect; inactive = flat fitted curve, though single readings scatter; cell line not stated here;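 note: potency is the fitted concentration of half-maximal effect; % of control where 0% means no effect; nearly all actives have a fitted effect of over 65% in size; a mitochondrial uncoupler was the plate control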
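Cells are seeded, rested 12 hours, then given compound at five concentrations or DMSO for 24 hours. After fixation, blocking and antibody staining, PINK1 amount and mitochondrial localization are scored; CCCP serves as control.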
D2 ag = agonists of human D2 dopamine receptor (beta-arrestin); DiscoveRx PathHunter D2 beta-arrestin, luminescence, 90 min; 100% = 57 uM dopamine signal; hit rate 0.084% among 360,000; activation, % (concentration not given with the values); in the data active = activation above about 40%; inconclusive = about 15% to 40%; inactive = below about 15%; note: compound concentration not given in the record; the text of the record calls up to 30% inactive
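DiscoveRx PathHunter D2 beta-arrestin cells (2,100/well) attached overnight, then compound-stimulated 90 min at 37 C in HBSS/10 mM HEPES/0.1% Tween-20 buffer; beta-galactosidase complementation read by luminescence after 1 h at ambient temperature. Dopamine 57 uM final (EC100) as control.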
TRPML1 inh = blocks the human TRPML1 channel. hit rate 0.02% among 390,000. TRPML1-inducible cells, Ca2+ dye fluorescence, FDSS; active compounds read low; inhibition of EC80 agonist-evoked calcium signal. activity change, negative = inhibition, % (no concentration beside the values). Q9GZU1; in the data active means activity change below about -50%; inconclusive means about -30% to -50%; inactive means above about -30%;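 note: stimulus is agonist 54-4 at its EC80 concentration; % is set by controls: 0 for no effect and ±100 for the full control effect; compound concentration not given in the record; the text of the record puts the active cut at -80%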
Target sequence (Q9GZU1 whole entry, looked up): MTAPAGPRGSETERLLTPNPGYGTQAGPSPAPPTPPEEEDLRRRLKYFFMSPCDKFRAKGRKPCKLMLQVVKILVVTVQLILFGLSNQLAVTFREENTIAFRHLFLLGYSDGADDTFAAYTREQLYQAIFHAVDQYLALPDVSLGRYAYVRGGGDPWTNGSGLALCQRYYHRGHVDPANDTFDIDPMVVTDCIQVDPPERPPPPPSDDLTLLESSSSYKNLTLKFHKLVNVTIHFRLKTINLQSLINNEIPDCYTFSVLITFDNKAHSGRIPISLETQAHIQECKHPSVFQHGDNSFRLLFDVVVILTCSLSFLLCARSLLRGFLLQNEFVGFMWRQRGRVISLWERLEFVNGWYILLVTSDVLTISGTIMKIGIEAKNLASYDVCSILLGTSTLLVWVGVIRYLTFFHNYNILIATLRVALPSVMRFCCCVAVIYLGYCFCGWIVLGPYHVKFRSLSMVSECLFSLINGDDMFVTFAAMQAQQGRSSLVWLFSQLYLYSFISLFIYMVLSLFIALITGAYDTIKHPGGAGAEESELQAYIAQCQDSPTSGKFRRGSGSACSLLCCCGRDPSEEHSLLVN
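Tet-induced TRPML1-DL cells loaded with Ca8 no-wash calcium dye were read kinetically on FDSS. Compound addition was followed by EC80 agonist 54-4 (4 uM final); inhibition was read over 110 s.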
Six1-Eya2 inh = inhibitors of human Six1/Eya2 interaction; Q15475+O00167; AlphaScreen GST-Six1/His-Eya2 binding, biochemical; active compounds read low; control for the full effect not named in the record; activity change, % (concentration not given with the values); hit rate 0.56% among 360,000; in the data active = activity change below about -65%; inconclusive = about -30% to -65%; inactive = above about -30%; note: % is set by controls: 0 for no effect and ±100 for the full control effect
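AlphaScreen luminescence read after one hour at 37 °C in darkness. Pin-transferred compounds met GST-Six1 and His-Eya2 protein (5X stock 250 nM/500 nM) plus glutathione donor and Ni-chelate acceptor beads (5X, 50 ug/mL).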
TRPML1 agonist = activates the human TRPML1 channel | activation, % (test concentration not listed) | TRPML1-expressing cells, Ca2+ dye fluorescence, FDSS; host cell line not named in the record; reference of the full effect not given here | hit rate 0.12% among 410,000; in the data active = activation above about 50%; inconclusive = about 30% to 50%; inactive = below about 30%; note: 0% is about no effect; the text of the record puts the active cut at 80%
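Tet-induced TRPML1-DL cells, 1,500 per well, cultured overnight, were loaded with a no-wash Ca2+ dye for 45–90 min. Calcium fluorescence was recorded on the FDSS for 110 s after compound addition, before the EC80 agonist (4 uM 54-4) was added.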
Active calls of the source: *; ? = inconclusive; . = not tested or not shown; & = joins results of further samples; [ ] = dose if it differs, or a comment. An unsorted share of the library. About 1% of those tested had a hit in this group.

mol	D2 ag	TRPML1 inh	TRPML1 agonist	D2 PAM	PINK1 modulator	Six1-Eya2 inh
COc1ccc(NC(=O)Cn2c(SCc3ccc(F)cc3)nc3cccnc32)cc1OC	.	23	-0.3	.	2.2%	.
CCN1CCN(CCCNC(=O)CCCn2nc(C)c3sc4ccccc4c3c2=O)CC1	-1.5	-10	-0.2	-8	-0.8%	-3
CCCCNC(=O)Nc1cc(C(F)(F)F)c[nH]c1=O	1.3	-14	0.5	-7	.	4
N#Cc1ccccc1NC(=O)COC(=O)c1ccc2c(c1)OCCO2	-3.1	2	-0.7	-8	-1.4%	4
COc1c(Cl)cc(-c2noc(C)c2C(=O)NC(C)C)cc1Cl	1.0	11	-0.5	-3	1.1%	6
CCOC(=O)C1CN(S(=O)(=O)c2ccc(C)cc2)CCN1S(=O)(=O)c1ccc(C)cc1 (stereo unspecified)	-0.4	-7	1.7	5	-3.1%[38.3 µM]	3
Cn1[nH]c(-c2ccccc2)c(/C=N/O)c1=O	-5.1	7	-1.0	-14	-1.2%	-1
Cc1ccc(S(=O)(=O)NC2(C(=O)O)CCCC2)cc1	-0.1	1	0.1	-7	-3.1%	0
N#CCc1nn(Cc2ccc(F)cc2)c(=O)c2ccccc12	1.3	-9	2.2	-1	-2.3%	2
CC12C(=O)N(c3ccccn3)C(=O)C1C1C=CC2C1 (stereo unspecified)	-1.5	34	0.0	-4	0.0%	-9
CC(NC(=O)COC(=O)c1ccc([N+](=O)[O-])o1)c1ccccc1 (stereo unspecified)	9.6	8	-0.7	6	1.8%	5
CS(=O)(=O)N(CC(=O)N1CCC(C(N)=O)CC1)Cc1ccc(Cl)c(Cl)c1	-0.1	.	.	24	3.0%	-1
N#C/C(=C/Nc1ccccc1F)S(=O)(=O)c1ccc(Cl)cc1	-0.2	-3	1.7	-1	23%	7
CC(C)CNc1nc(N)c([N+](=O)[O-])c(NCc2ccccc2)n1	0.1	10	0.1	-6	2.6%	-2
COc1ccc(/C=C/C(=O)OCCCN(C)C)cc1	0.2	20	0.3	-13	0.0%	13
CCC1CN(C(=O)NCc2ccc(F)cc2)c2ccccc2O1 (stereo unspecified)	-0.2	10&19	-1.6&3.0	-8	0.5%&0.3%	6
O=S(=O)(NC1CC2CCC1C2)c1ccc(Cl)cc1 (stereo unspecified)	1.4	10	0.1	-1	2.6%	7
CCC(C)NC(=O)Cn1c(=O)n(CCCCC(=O)NCc2ccco2)c(=O)c2ccccc21 (stereo unspecified)	-4.2	15	1.0	-4	-2.3%	7
O=C(Nc1ccc(Br)cc1)c1ccc(F)c(S(=O)(=O)N2CCCc3ccccc32)c1	.	9	0.7	.	3.0%	.
CCOC(=O)c1sc(NC(=O)/C=C/c2cnn(CC)c2C)c(C(=O)OCC)c1C	-0.8	-5	2.5	-1	-1.5%[38.3 µM]	36
C=CCNc1nc(SCC=C)nc2ccsc12	4.4	-4	1.4	-20	0.6%	3
COc1ccc(Nc2ncnc3c2cnn3-c2ccccc2)cc1OC	2.6	?	-0.9	-3	10%	-3
O=C(NC1CCCC1)c1cccc2c1C(=O)c1ccc(/C=C/c3ccccc3)cc1S2(=O)=O	1.3	-1	-0.5	-14	6.3%	1
COc1ccc(Nc2ncccc2C(=O)NCc2ccccc2)cc1	0.3	64	3.2	-8	3.9%[38.3 µM]	-23
O=C(CC1C(=O)OCC2CCCCN21)Nc1ccccc1C(F)(F)F (stereo unspecified)	-0.4	10	0.6	-12	-0.9%	0

More entries
mol	D2 ag	TRPML1 inh	TRPML1 agonist	D2 PAM	PINK1 modulator	Six1-Eya2 inh
COc1ccc(-c2noc(=O)n2Cc2ccccc2F)cc1	-1.8	-5	0.4	-2	0.2%	6
CC(CNC(=O)C1CCN(C(=O)c2cc3sccc3n2C)CC1)c1ccccc1 (stereo unspecified)	.	-11	0.2	.	0.0%	.
O=[N+]([O-])c1cccnc1Oc1ccc(F)cc1F	1.2	7	-0.7	-3	-1.6%	-9
COC(=O)c1nnn(-c2ccc(Cl)cc2)c1C(=O)OC	.	0	0.7	.	0.5%	.
CCOc1ccc(-c2cc(C(=O)NCCCN3CCCC3)c3ccccc3n2)cc1	-3.6	-6	0.1	-32	4.9%	2
C[C@]12C(=O)N(c3cccc(F)c3)C(=O)N1[C@@H]1c3ccccc3OC[C@@H]1[C@H]2c1ccccc1	-4.2	-1	0.4	-5	0.3%	-8
FC(F)Sc1ccc(-n2c(-c3ccc(Cl)cc3)c[n+]3c2CCC3)cc1	-7.0	-15	0.6	-10	0.7%	-2
CCc1cccc2c(C(=O)COC(=O)c3nccnc3N)c[nH]c12	-5.5	-13	-0.1	-17	-0.4%	-11
C=CCn1c(CSc2nnc(-c3ccccc3)n2C)n[nH]c1=S	5.8	-21	0.6	-10	0.3%	-3
O=C(CN1C(=O)C2CC=CCC2C1=O)Nc1ccc(OC(F)(F)F)cc1 (stereo unspecified)	4.2	0	0.0	4	3.2%	4
Cn1c(NCCc2ccccc2)cc(=O)n(C)c1=O	0.5	19	-1.5	0	-1.3%	-4
CC(=O)NCc1nc2ccccc2n1Cc1ccccc1C	-3.4	-4	-0.6	-6	4.7%	-4
CC(C)COC(=O)NC1c2ccccc2Oc2ccccc21	3.7	-9	2.0	0	14%	7
O=C(O)C(Cc1ccc(F)cc1)c1ccccc1 (stereo unspecified)	-6.0	-3	-0.4	-11	1.6%	-3
CCOC(=O)CC1=NN(c2ccccc2)C(=O)C1=c1sc(=C2SC(C)=C(C)N2CC)c(=O)n1CC	-1.5	34	-0.2	-7	0.4%	5
O=C(O)c1cccc(S(=O)(=O)Nc2cc(Cl)ccc2Cl)c1	0.7	-10	0.1	-2	-1.5%	-1
COC(=O)COc1ccc2c(=O)c(-c3ccccc3OC)coc2c1	-2.0	15	0.2	-3	3.6%	2
CCCNC(=O)COC(=O)c1n[nH]c2ccccc12	-2.8	1	0.3	0	-0.2%	4
O=C(Cn1cc(C(F)(F)F)ccc1=O)N/N=C/c1ccccc1O	-7.1	.	.	-10	-0.2%	?
CCOc1ccc(/C(O)=C2\C(=O)C(=O)N(c3ccc(OC)cc3)C2c2ccccc2[N+](=O)[O-])cc1 (stereo unspecified)	-10	24	2.9	-10	-0.2%	-12
Cc1cccc(NCc2cc(Cl)cc(Cl)c2O)n1	0.5	14	2.0	-13	3.3%[38.3 µM]	-17
CC(Sc1ccc(S(=O)(=O)N2CCN(C)CC2)cn1)C(=O)NC1(C#N)CCCCC1 (stereo unspecified)	-11	-21	-0.9	-14	-1.3%	9
Cc1cc(C)cc(Oc2ccc(C(F)(F)F)cc2C#N)c1	-3.6	5	2.5	3	12%	19
COc1cc(SC)ccc1C(=O)N1CCN(Cc2ccc3c(c2)OCO3)CC1	1.8	.	.	-25	-0.6%	-2
CCOC(=O)C1=C(c2ccccc2)N(C)C(=O)NC1c1ccc(OC(F)F)c(OC)c1 (stereo unspecified)	-0.7	9	3.2	11	1.7%	0

Going on with the list.
mol	D2 ag	TRPML1 inh	TRPML1 agonist	D2 PAM	PINK1 modulator	Six1-Eya2 inh
CC(=O)c1ccc(Nc2ncnc3c2oc2ccccc23)cc1	-0.5	5	0.6	-3	-0.7%	7
CCCCN(C(=O)c1cc2ccccc2o1)c1c(N)n(CC(C)C)c(=O)[nH]c1=O	-3.4	-7	-1.3	-5	2.9%	-2
CC(C)c1ccc(-n2nnnc2SCC(=O)NC2CC2)cc1	-2.0	8	-0.6	-1	2.5%	5
Cc1ccc(SCC(=O)O/N=C(\N)c2cccnc2)cc1	1.2	27	2.1	-1	-0.5%	0
O=C(COc1ccc(S(=O)(=O)N2CCCC2)cc1)N1CCCC1	-4.5	-6	-0.3	0	0.3%	-1
CCOC(=O)C1=CNS(=O)(=O)NC1c1ccc(Br)cc1F (stereo unspecified)	-3.0	-9	-0.6	-2	1.3%	-1
O=C(COC(=O)CNC(=O)c1ccccc1F)NC1CC1	-3.6	3	0.3	-3	0.2%	8
O=c1c2ccccc2nc(/C=C/c2ccc([N+](=O)[O-])o2)n1CCCO	-4.5	-7	-0.6	-5	11%	-4
Cc1nc(SCC(=O)NCCc2ccccc2)nc(C)c1C	-2.4	-4	0.3	-16	-1.0%	6
O=C(NNC(=O)c1cc2cc3ccccc3nc2s1)c1ccc(F)cc1	-1.2	0	-0.4	-7	9.7%	1
Cc1c(C(=O)N2CCCCCC2(C)C(=O)NCC(C)C)oc2ccccc12 (stereo unspecified)	-2.3	.	-0.1	-7	0.4%	6
CCOC(=O)c1c(C)oc2ncnc(Nc3ccc(F)cc3Cl)c12	.	-10	1.8	.	2.0%	.
Cc1cc(NC(c2nnc(-c3ccccc3)o2)c2ccccc2F)ccc1Br (stereo unspecified)	.	-1	0.9	.	7.5%	.
COc1ccc(-c2cccc(C(=O)Nc3ccc(OC)c(OC)c3)c2)cc1	1.8	-10	3.6	-2	2.5%	-15
Cc1cc(C)c2nc(SCC(=O)Nc3cc(C)on3)c(C)cc2c1	-5.9	22	1.2	-2	12%	4
Cc1ccc(S(=O)(=O)NCCC(=O)OCC(=O)NCCc2ccccc2)cc1C	-1.7	-20	-1.0	-5	3.7%	5
CCN(CC(=O)NC1CCCC1)S(=O)(=O)c1ccc(F)cc1	4.8	-5	-0.4	-8	-0.8%	7
Fc1ccc(-c2c[nH]c(=S)n2Cc2ccccc2)cc1	-5.1	5	1.0	-2	2.0%	-17
CCOc1ccc(CC(=O)N/N=C(\C)c2cccnc2)cc1	-3.3	14	-0.8	-12	0.3%	-7
CC(C)c1ccc(C2=NN(c3ccccc3)C(=O)CC2)cc1	-5.8	-14	-0.2	12	14%	19
CN(C)c1ccc(N=Nc2ccccc2C(=O)OCC(=O)N2CCCC2)cc1	-4.7	15	4.9	-3	-0.9%	?
CCCOc1ccc(CN(C(=O)c2cccc(OC)c2)C2CCS(=O)(=O)C2)cc1 (stereo unspecified)	-0.4	0	-0.1	-8	-1.3%	-2
O=C1OCCC1=COCCCCCCOC=C1CCOC1=O	-4.6	10	0.2	-8	-0.5%	0
Cc1ccc2nc(Cl)c(C3CC(c4cccs4)=NN3C(=O)CCCC(=O)O)cc2c1 (stereo unspecified)	3.2	16	-0.4	6	1.1%	1

Compound profiles (already shown). Order of screens: D2 ag	TRPML1 inh	TRPML1 agonist	D2 PAM	PINK1 modulator	Six1-Eya2 inh
Results for `Cc1ccc(SCC(=O)O/N=C(\N)c2cccnc2)cc1` : 1.2	27	2.1	-1	-0.5%	0
Results for `CCCOc1ccc(CN(C(=O)c2cccc(OC)c2)C2CCS(=O)(=O)C2)cc1` (stereo unspecified) : -0.4	0	-0.1	-8	-1.3%	-2
Results for `Fc1ccc(-c2c[nH]c(=S)n2Cc2ccccc2)cc1` : -5.1	5	1.0	-2	2.0%	-17
